Assay outcomes deposited in PubChem BioAssay by National Center for Advancing Translational Sciences (NCATS).
Six1-Eya2 blk: qHTS Assay for Inhibitors of the Six1/Eya2 Interaction | Homeobox protein SIX1 (Homo sapiens) + Protein phosphatase EYA2 (Homo sapiens), … | AlphaScreen GST-Six1/His-Eya2 binding, biochemical; stronger effect = lower value; control for the full effect not named in the record | activity change, % (concentration not given with the values) | 360,000 compounds, 0.56% hits; in the data active = activity change below about -65%; inconclusive = about -30% to -65%; inactive = above about -30%; also: % is scaled to controls: 0 for no effect and ±100 for the full control effect
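AlphaScreen luminescence read after one hour at 37 °C in darkness. Pin-transferred compounds met GST-Six1 and His-Eya2 protein (5X stock 250 nM/500 nM) plus glutathione donor and Ni-chelate acceptor beads (5X, 50 ug/mL).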
D2 ag: Beta-Arrestin HTS for Positive Allosteric Modulators of the Human D2 Dopamine Receptor: Agonists; DiscoveRx PathHunter D2 beta-arrestin, luminescence, 90 min; 100% = 57 uM dopamine signal; 360,000 compounds, 0.084% hits; AID 624465, 2012; D(2) dopamine receptor (Homo sapiens), P14416; activation, % (test concentration not listed); in the data active = activation above about 40%; inconclusive = about 15% to 40%; inactive = below about 15%; also: compound concentration not given in the record; the text of the record calls up to 30% inactive
Target sequence (P14416 whole entry, looked up): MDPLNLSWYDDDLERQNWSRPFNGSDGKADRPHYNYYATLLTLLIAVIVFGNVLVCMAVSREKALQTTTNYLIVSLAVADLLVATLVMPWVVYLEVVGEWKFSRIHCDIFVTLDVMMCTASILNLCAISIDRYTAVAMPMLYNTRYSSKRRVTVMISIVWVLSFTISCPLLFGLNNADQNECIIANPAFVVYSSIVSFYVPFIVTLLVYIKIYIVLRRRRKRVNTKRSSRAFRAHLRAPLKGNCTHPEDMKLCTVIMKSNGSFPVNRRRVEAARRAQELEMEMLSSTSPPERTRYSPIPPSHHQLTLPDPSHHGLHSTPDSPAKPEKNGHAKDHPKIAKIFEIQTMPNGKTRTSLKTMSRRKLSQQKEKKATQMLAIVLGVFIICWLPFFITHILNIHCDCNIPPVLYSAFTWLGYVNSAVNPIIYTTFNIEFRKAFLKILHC
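Agonist mode: compounds alone added to overnight-plated D2 PathHunter cells for 90 min at 37 C, with 57 uM final dopamine (EC100) defining full response. Beta-arrestin recruitment detected by chemiluminescent reagent, read after 1 h at ambient temperature.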
D2 potentiator: Beta-Arrestin HTS for Positive Allosteric Modulators of the Human D2 Dopamine Receptor: Potentiators | D(2) dopamine receptor (Homo sapiens), P14416 | DiscoveRx D2 beta-arrestin cells, luminescence, 90 min; 100% = 57 uM dopamine signal | potentiation, % (no concentration beside the values) | 360,000 compounds, 0.23% hits; active = potentiation of 50% or more; inconclusive = 30% to 50%; inactive = 30% or less;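 also: compound concentration not given in the record; tested on top of an EC20 dose of dopamine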
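PathHunter D2 cells, attached overnight at 37 deg C, received compound in DMSO plus dopamine at EC20 (50 nM final) for 90 min at 37 deg C. Beta-arrestin recruitment was read as luminescence after 1 h with detection reagent at ambient temperature.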
PINK1 expr mod: A Quantitative High throughput Screen to Identify Chemical Modulators of PINK1 Expression. AID 624263, 2012. Potency, µM (top dose mostly 76.6 µM), inactives show at the highest dose activation (PINK1 increase), most hits filed as activators. PINK1 immunofluorescence, high-content cytometry, 24 h. 410,000 compounds, 0.2% hits; active = well fitted activation curve with a large enough effect; inconclusive = small, poorly fitted or top-dose-only effect; inactive = flat fitted curve, though single readings scatter; cell line not stated here;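 also: potency is read from the fitted curve at half-maximal effect; % of control where 0% means no effect; nearly all actives have a fitted effect of over 65% in size; a mitochondrial uncoupler was the plate control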
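Stable cell line treated 24 h with compounds at 5 concentrations (CCCP controls), then fixed and immunostained for PINK1 plus nuclear and cell stains; PINK1 immunofluorescence quantified by laser-scanning microplate cytometry.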
TRPML1 agonist: qHTS for Agonists of the Human Mucolipin Transient Receptor Potential 1 (TRPML1). Mucolipin-1 (Homo sapiens), Q9GZU1. TRPML1-expressing cells, Ca2+ dye fluorescence, FDSS; host cell line not named in the record; reference of the full effect not given here. activation, % (test concentration not listed). 410,000 compounds, 0.12% hits. AID 624414, 2012; in the data active = activation above about 50%; inconclusive = about 30% to 50%; inactive = below about 30%; also: 0% is about no effect; the text of the record puts the active cut at 80%
Target sequence (Q9GZU1 whole entry, looked up): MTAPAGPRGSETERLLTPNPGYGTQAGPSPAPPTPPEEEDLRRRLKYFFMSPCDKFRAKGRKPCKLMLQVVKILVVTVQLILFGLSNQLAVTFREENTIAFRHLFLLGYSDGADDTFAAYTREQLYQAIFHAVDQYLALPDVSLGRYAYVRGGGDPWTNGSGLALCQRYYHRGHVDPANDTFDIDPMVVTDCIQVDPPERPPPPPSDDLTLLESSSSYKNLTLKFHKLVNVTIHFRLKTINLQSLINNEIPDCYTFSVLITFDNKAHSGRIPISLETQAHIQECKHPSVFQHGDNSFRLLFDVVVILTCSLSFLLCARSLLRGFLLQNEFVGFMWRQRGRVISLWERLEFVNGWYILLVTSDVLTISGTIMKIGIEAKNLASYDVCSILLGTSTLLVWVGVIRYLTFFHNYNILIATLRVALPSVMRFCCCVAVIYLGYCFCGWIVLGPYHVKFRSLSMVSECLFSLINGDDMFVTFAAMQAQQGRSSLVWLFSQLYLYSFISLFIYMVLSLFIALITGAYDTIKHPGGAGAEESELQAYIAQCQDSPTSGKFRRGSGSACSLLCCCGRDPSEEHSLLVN
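Tet-induced TRPML1-DL cells, 1,500 per well, cultured overnight, were loaded with a no-wash Ca2+ dye for 45–90 min. Calcium fluorescence was recorded on the FDSS for 110 s after compound addition, before the EC80 agonist (4 uM 54-4) was added.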
TRPML1 blocker: qHTS for Inhibitors of the Human Mucolipin Transient Receptor Potential 1 (TRPML1); 390,000 compounds, 0.02% hits; Mucolipin-1 (Homo sapiens), Q9GZU1; AID 624415, 2012; TRPML1-inducible cells, Ca2+ dye fluorescence, FDSS; stronger effect = lower value; inhibition of EC80 agonist-evoked calcium signal; activity change, negative = inhibition, % (test concentration not listed); in the data active means activity change below about -50%; inconclusive means about -30% to -50%; inactive means above about -30%;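 also: stimulus is agonist 54-4 at its EC80 concentration; % is scaled to controls: 0 for no effect and ±100 for the full control effect; compound concentration not given in the record; the text of the record puts the active cut at -80%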
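Tet-induced TRPML1-DL cells loaded with Ca8 no-wash calcium dye were read kinetically on FDSS. Compound addition was followed by EC80 agonist 54-4 (4 uM final); inhibition was read over 110 s.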
* marks the source's active call; other numbers are inactive results; ? = inconclusive; · = not tested or not shown; [ ] = dose if it differs, or a comment.

Sample of the layout:
SMILES | Six1-Eya2 blk | D2 ag | D2 potentiator | PINK1 expr mod | TRPML1 agonist | TRPML1 blocker
Cc1ccc(NC(=O)COC(=O)c2ccc([N+](=O)[O-])o2)cc1S(=O)(=O)N1CCCCC1 | -11.4 | 10.8 | 29.2 | -0.5% | -0.5 | -0.8
Cc1cn(CCC(=O)Nc2ccc(N3CCOCC3)cc2)c2ccccc12 | -29.0 | -3.6 | -22.6 | 1.4% | -0.3 | 16.0

All compounds of this part (from the top)
SMILES | Six1-Eya2 blk | D2 ag | D2 potentiator | PINK1 expr mod | TRPML1 agonist | TRPML1 blocker
Cc1ccc(NC(=O)COC(=O)c2ccc([N+](=O)[O-])o2)cc1S(=O)(=O)N1CCCCC1 | -11.4 | 10.8 | 29.2 | -0.5% | -0.5 | -0.8
Cc1cn(CCC(=O)Nc2ccc(N3CCOCC3)cc2)c2ccccc12 | -29.0 | -3.6 | -22.6 | 1.4% | -0.3 | 16.0
CC(=O)NC12CC3CC(C1)CC(C(=O)Nc1ccc(C)c(S(=O)(=O)N4CCCCCC4)c1)(C3)C2 | 1.3 | 3.2 | -12.3 | 0.1% | 1.5 | -4.9
COC(=O)C1=C(N)Oc2cc(C)oc(=O)c2C1c1cccnc1 (stereo unspecified) | 8.1 | -2.4 | -12.4 | 31.9%[38.3 µM] | -0.4 | -6.5
C=CCn1c(NC(=O)c2ccc(Br)o2)c(C(=O)OCC)sc1=S | -1.6 | -1.0 | -11.3 | ? | 0.8 | -12.9
CCOc1ccc(-c2c(C)nn3c(C)c(C(=O)Nc4cccc(Cl)c4C)cnc23)cc1OCC | · | · | · | 1.4% | 1.6 | -24.3
CCCCCN(C(=O)CSc1n[nH]c(-c2ccc(C)cc2)n1)c1c(N)n(CCCC)c(=O)[nH]c1=O | -1.5 | -0.5 | -10.5 | -0.3% | 0.1 | 2.0
O=C(CCC(=O)N1CCCC1)Nc1ccc([N+](=O)[O-])cc1 | 6.7 | -3.3 | -5.0 | -1.4% | 0.0 | 5.4
CCOc1ccc(NC(=O)CSc2cn(CCNC(=O)c3ccccc3F)c3ccccc23)cc1 | · | · | · | 3.7% | 2.0 | 12.0
CC(C)CC(=O)NC1(C(F)(F)F)NC(=O)N(c2ccccc2)C1=O (stereo unspecified) | 1.2 | -2.2 | 0.8 | -0.3% | -0.3 | -12.2
O=C(Nc1ccc(CSc2ccccc2)cc1)c1ccc(CN2CCOCC2)cc1 | -2.6 | 0.2 | -14.3 | 11.2% | 3.0 | 22.6
CN(C)c1nc2ccc(OCCN3CCCCC3)cc2s1 | -1.6 | -1.7 | -6.1 | -4.7% | -1.0 | -11.8
C=CCN(c1ccccc1OC)S(=O)(=O)c1cccc(C(=O)OCC(=O)N2CCOCC2)c1 | 2.9 | -4.3 | -9.6 | 2.2% | -1.1 | -11.9
Cc1nn(Cc2ccc(Cl)cc2)c(C)c1NC(=O)CSc1n[nH]c(C)c1[N+](=O)[O-] | -7.7 | -0.6 | -8.5 | 0.5% | -0.5 | 1.5
CCCn1c(=O)c(C(=O)NCc2ccccc2Cl)c(O)c2ccccc21 | 19.0 | -0.1 | -2.5 | 22.7% | 0.7 | -17.4
CCOC(=O)c1c(-n2cnnn2)sc(C)c1C | 4.3 | -4.9 | 5.0 | -5.1%[38.3 µM] | -0.8 | -3.0
COc1ccc(S(=O)(=O)N(C)CC(=O)NCc2cccnc2)cc1OC | -2.7 | -0.2 | -13.9 | 1.0%[38.3 µM] | 0.5 | -1.1
CCN(CC)C(=O)C1=C(C)N(CCCN2CCCC2=O)C(=O)C(CC(=O)NCCN2CCOCC2)C1 (stereo unspecified) | -0.3 | -8.4 | 2.8 | 2.0% | -0.1 | -4.7
O=C(Cn1cc(C(F)(F)F)cc(Cl)c1=O)Nc1cc(S(=O)(=O)N2CCOCC2)ccc1Cl | -2.6 | -1.9 | -13.5 | 0.0% | -0.4 | -3.3
Cc1ccc(OC(C)C(=O)Nc2ccc(C)c(S(=O)(=O)Nc3ccc(C)cc3C)c2)cc1 (stereo unspecified) | 3.8 | 2.4 | 0.2 | 1.9% | 1.5 | -7.9
COc1ccc2cc(C3OCCO3)c(Cl)nc2c1 | 0.2 | -9.1 | -10.7 | 0.0% | -1.2 | 6.7
CSc1nc2ccccc2n1CC(=O)Nc1ccccc1 | 5.3 | 0.0 | 20.0 | -1.1% | -0.2 | -4.1
Cc1ccc(-n2nc(-c3ccco3)cc2C(=O)O)cc1 | -20.6 | -6.2 | -0.6 | 0.4% | · | ·
NC(=O)[C@@H]1CC2(CC(c3cccc(NC(=O)COc4ccc(Cl)cc4)c3)=NO2)CN1C(=O)c1ccccc1 (stereo partly specified) | 1.3 | 0.4 | -3.2 | 2.5% | -0.6 | 18.5
COC(=O)CC1C(=O)NCCN1C(=S)Nc1cccc(C)c1 (stereo unspecified) | 27.8 | -2.4 | 1.2 | -1.4% | -0.3 | -3.0
COCCn1c(=N)c(C(=O)NCCc2ccc(OC)cc2)cc2c(=O)n3cccc(C)c3nc21 | -4.1 | -2.5 | -15.0 | 0.7% | -1.2 | -1.8
O=C1CC(C(=O)N2CCCc3ccccc32)CN1c1ccc(F)cc1 (stereo unspecified) | -1.8 | -2.0 | -5.5 | 0.1% | -0.3 | 11.0
O=C(CC(CC(=O)c1ccccc1)c1ccco1)c1ccccc1 | -20.8 | -2.1 | -4.4 | 3.5% | -0.3 | -6.2
O=C(Nc1ccc(Br)cc1)c1ccc2ncsc2c1 | -0.3 | 1.0 | -12.7 | 1.1% | -0.3 | 11.3
CC1(Cc2ccccc2C#N)C(=O)Nc2ccc(-c3ccc4[nH]ccc4c3)cc21 (stereo unspecified) | -12.6 | 11.2 | 10.4 | ? | -0.3 | ·
COc1ccc(OC)c(-c2csc(NC(=O)C3CSC4(C)CCC(=O)N34)n2)c1 (stereo unspecified) | -4.0 | 6.6 | -0.9 | -0.3% | 2.2 | 41.9
O=C(CCCc1ccccc1)Nc1ccnn1C1CCN(Cc2ccccc2F)CC1 | 0.5 | -0.2 | -18.2 | 0.3% | 0.4 | 5.9
CC(C)c1cccc(OCC(=O)Nc2ccc(S(=O)(=O)Nc3ccccn3)cc2)c1 | -5.3 | -5.1 | -7.0 | 0.9% | 4.2 | 8.8
CCCNC(=O)C1=C(C)C(=O)OC12CCC(C)CC2 (stereo unspecified) | -0.8 | -0.8 | -0.8 | -0.2% | 0.4 | -12.5
COc1cccc(-c2csc(/C(C#N)=C/Nc3cc4oc5ccccc5c4cc3OC)n2)c1 | 3.0 | -3.2 | 0.2 | 0.5% | -0.9 | 32.3
COCCNC(=S)N/N=C(\C)c1ccc(OC(F)F)cc1 | -1.8 | -1.9 | -8.3 | -1.0% | 0.9 | 13.7
OCC[C@H]1C[C@@H](O)[C@H](O)[C@@]2(OCCc3ccccc32)O1 | 6.7 | -4.2 | -8.4 | 2.9% | 0.4 | -1.4
Cc1c(/C(Cc2ccccc2)=N/O)c2ccccc2n1C | -6.9 | -2.7 | 0.0 | 2.9% | -0.1 | 35.6
N#C/C(=C/C1=C(N2CCOCC2)C(=C/c2ccc(Cl)cc2)/CC1)C(=O)Nc1ccccc1F | -26.3 | -1.2 | -4.0 | 8.6% | 2.5 | -0.8
CCCSc1nc(N2CCOCC2)c2c(c1C#N)CCCC2 | 12.3 | 3.4 | -20.1 | 0.1% | 0.9 | 38.4
COC(=O)c1ccccc1NC(=O)N1CCN(c2ccc(F)cc2)CC1 | -7.4 | -5.2 | -2.9 | 3.3% | 0.8 | 13.1
COCCCNC(=O)c1c(N)n(/N=C/c2cccnc2)c2nc3ccccc3nc12 | -2.8 | -5.9 | -4.2 | 4.1% | -0.4 | -0.5
COC(=O)C1=C(C(=O)OC)[C@@H]2N(Cc3ccccc3)c3ccccc3[C@@]23C[C@@H](C(=O)OC)N(C(=O)CC(C)C)C3=N1 | -17.9 | -2.5 | 1.7 | -0.4% | 1.1 | 6.7
COc1cc(-c2nnc(SC(C)C(=O)Nc3c(C)n(C)n(-c4ccccc4)c3=O)o2)cc(OC)c1OC (stereo unspecified) | -0.4 | 1.1 | 3.1 | 14.2%[38.3 µM] | 0.5 | 3.3
CC1(OC(=O)C2CCCC2)C(=O)C=C2C=C(c3ccsc3)N(c3ccccc3)C=C2C1=O (stereo unspecified) | -27.3 | 14.9 | -1.5 | 0.4% | -0.4 | 4.4
O=C(COC(=O)c1nc(Cl)ccc1Cl)c1ccccc1Cl | 8.5 | -7.7 | -14.1 | -0.7% | 0.4 | 11.6
NC(COCc1ccccc1)c1csc(Nc2ccc(C(=O)NCCO)cc2)n1 (stereo unspecified) | -21.2 | -3.4 | -6.2 | 1.0% | -0.4 | ·
Cc1ccc(OCc2cc(C(=O)NCc3cc(F)ccc3C)no2)cn1 | -1.7 | 2.8 | -7.6 | -0.3% | 1.7 | 2.4
COCCCNc1nc2c(S(=O)(=O)c3ccccc3)nnn2c2ccc(Cl)cc12 | · | · | · | -2.2% | -0.5 | 5.2
CC(C)C[C@H]1CN(CCCC[C@H]2CNC(=O)C(=O)N2CCc2ccc(O)cc2)C(=O)C(=O)N1CCc1ccccc1 | -9.4 | · | · | -0.4% | -1.0 | ·

The listing continues:
SMILES | Six1-Eya2 blk | D2 ag | D2 potentiator | PINK1 expr mod | TRPML1 agonist | TRPML1 blocker
COc1ccc(C(=O)N2CCN(c3ccc(NC(=O)Cc4ccccc4)cc3)CC2)cc1 | 4.6 | -5.7 | -6.5 | 1.1% | 0.2 | 9.1
COC(=O)c1ccc(NC(=O)CN(c2ccc(OC)cc2)S(C)(=O)=O)cc1 | -13.2 | -1.9 | -13.4 | 2.8% | 1.0 | -6.1
Fc1ccc(F)c(C2=NNC(=Nc3ccccc3F)SC2)c1 | -22.0 | -8.8 | 1.3 | 35.5µM* | 0.7 | 9.2
Cc1cc(C(=O)OCC(=O)NC2CCCCC2C)c2ccccc2n1 (stereo unspecified) | -1.7 | 1.3 | -2.6 | 1.8% | -0.1 | 14.6
COc1cccc(Nc2nc3ccc(C)cc3nc2-n2nc(C)cc2C)c1 | · | · | · | 1.9% | -0.3 | -9.1
N#Cc1c(N2CCOCC2)nc(N2CCCCC2)c2c1CCN(C1CCCCC1)C2 | 2.6 | -1.5 | -0.8 | -1.9% | 0.6 | 1.3
O=C(O)COc1ccccc1C=NNC(=O)c1ccc(NS(=O)(=O)c2cccs2)cc1 | 2.5 | -2.7 | -10.6 | 0.7% | 1.7 | -26.5
CCOc1ccc(NC(=O)C2CC(=O)N(C(C)C)C2)cc1 (stereo unspecified) | 5.8 | -2.6 | 5.1 | 0.7% | -0.4 | -9.2
Cc1nc(Nc2ccc(F)cc2)[nH]c(=O)c1CCC(C)C | -2.0 | 0.0 | -6.7 | ? | 0.2 | 9.7
